# Screens (PubChem)
# rRNA inh HTS – selective bacterial rRNA inhibition in E. coli | E. coli WT GFP vs humanized-ribosome RFP mutants, fluorescence, 24 h; active compounds read low; DMSO median 0, no signal -100 | GFP signal change (wild-type ribosome), % (concentration not given with the values) | actives 1.6% (n = 350,000) | AID 720706;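 active = significant combined selectivity score with lowered wild-type GFP, culture density cut under 30%, mutant RFP and density less affected; inactive = any of these conditions unmet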; note: one replicate is shown; some compounds called inactive have numbers as strong as hits
# rRNA inh HTS OD600 – recorded beside rRNA inh HTS, whose call it bears; OD600 change, %; measured here: OD600 growth;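 optical density of the mix in the first replicate; 0 = DMSO median and -100 = no signal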
# rRNA inh HTS RFP – also measured in rRNA inh HTS; calls as there; RFP signal change, %; measured here: RFP humanized mutant strains;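 first replicate; 0 = DMSO median and -100 = no signal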
# * marks the source's active call; other numbers are inactive results; & = joins results of further samples. Some of the compounds tested, so the mix of outcomes need not match the whole.
SMILES,rRNA inh HTS,rRNA inh HTS OD600,rRNA inh HTS RFP
COc1ccccc1NC(=O)N1CCCCN2[C@H](CO)[C@@H](c3ccc(C#CC4CCCC4)cc3)[C@@H]2C1,4,3,3.5
CC(=O)N(C)C[C@@H]1[C@@H](c2ccc(-c3ccccc3F)cc2)[C@@H](CO)N1C(C)=O,-4,-4,-0.3
CO[C@@H]1CN(C)C(=O)c2ccc(NC(=O)Nc3ccc4c(c3)OCO4)cc2OC[C@@H](C)N(C)C[C@H]1C,3,5,1.1
CCC(=O)N1C[C@@H](C)[C@H](OC)CN(C)C(=O)c2ccc(NC(=O)Nc3cccc(F)c3)cc2OC[C@@H]1C,-5,-9,2.7
C[C@H](CO)N1C[C@H](C)[C@@H](CN(C)C(=O)C2CCC2)Oc2ncc(C#CC(C)(C)O)cc2C1=O,3,10,-0.3
CCCC(=O)Nc1ccc2c(c1)C(=O)N(C)[C@@H]1CC[C@H](CC(=O)NCCN3CCCCC3)O[C@@H]1CO2,4,3,0.3
N#CC(Cc1cccs1)c1nc2ccccc2[nH]1 (stereo unspecified),77,11,11
CCc1cnc(N2[C@H](CO)[C@@H](c3ccc(-c4cccc(F)c4)cc3)[C@@H]2C#N)s1,0,-22,-1.3
C[C@H]1CN([C@@H](C)CO)C(=O)c2cc(C#CC3(O)CCCC3)cnc2O[C@@H]1CN(C)C(=O)Cc1cccnc1,2,7,-2.5
CO[C@H]1CN(C)C(=O)c2cc(NS(=O)(=O)c3cn(C)cn3)ccc2OC[C@H](C)N(CC2CC2)C[C@H]1C,1,2,-2.1
COCc1cn(CC[C@H]2CC[C@H](NC(=O)Nc3ccc(C(F)(F)F)cc3)[C@@H](CO)O2)nn1,-2,-2,0.6
CO[C@@H]1CC[C@@H]2CCOc3ccc(C#N)cc3C(=O)N(C)CCCC(=O)N(C)C[C@H]1O2,3,5,-0.8
COc1ccc(S(=O)(=O)Nc2ccc3c(c2)C(=O)N([C@H](C)CO)C[C@H](C)[C@H](CN(C)C)OCCCC[C@@H](C)O3)cc1,2,7,-2.3
COc1ccc(CN(C)C[C@H]2OCCCC[C@@H](C)Oc3ccc(NS(C)(=O)=O)cc3C(=O)N([C@H](C)CO)C[C@H]2C)cc1,2,6,-0.2
C[C@@H]1CN([C@@H](C)CO)C(=O)Cc2cc(NC(=O)Cc3ccccc3)ccc2O[C@H]1CN(C)C(=O)Nc1ccc(C(F)(F)F)cc1,-8,-5,8.4

# An excerpt of these results, with tabs.
molecule	rRNA inh HTS	rRNA inh HTS OD600	rRNA inh HTS RFP
N#CC(Cc1cccs1)c1nc2ccccc2[nH]1 (stereo unspecified)	77	11	11
CCc1cnc(N2[C@H](CO)[C@@H](c3ccc(-c4cccc(F)c4)cc3)[C@@H]2C#N)s1	0	-22	-1.3
C[C@H]1CN([C@@H](C)CO)C(=O)c2cc(C#CC3(O)CCCC3)cnc2O[C@@H]1CN(C)C(=O)Cc1cccnc1	2	7	-2.5
CO[C@H]1CN(C)C(=O)c2cc(NS(=O)(=O)c3cn(C)cn3)ccc2OC[C@H](C)N(CC2CC2)C[C@H]1C	1	2	-2.1

# Next section.
SMILES,rRNA inh HTS,rRNA inh HTS OD600,rRNA inh HTS RFP
O=C(C[C@H]1C[C@@H]2c3cc(NC(=O)C4CCOCC4)ccc3O[C@@H]2[C@H](CO)O1)NCc1ccncc1,3,5,-2.7
C[C@@H]1CN([C@H](C)CO)C(=O)c2cc(-c3ccc(F)cc3)cnc2O[C@H]1CN(C)C(=O)Nc1ccccc1F,-3,1,0.3
Cc1noc(C)c1NC(=O)Nc1ccc2c(c1)C(=O)N([C@@H](C)CO)C[C@@H](C)[C@H](CN(C)Cc1ccncc1)OCCCC[C@H](C)O2,0,-3,-0.8
C[C@@H]1CN([C@H](C)CO)C(=O)c2cc(NC(=O)CCCN(C)C)ccc2O[C@@H]1CN(C)Cc1ccc(C(=O)O)cc1,1,2,0.2
CC(C)Nc1ncnc2c1ncn2[C@H]1CN(Cc2cccnc2)C[C@@H](CO)O1,-1,2,1.6
CCc1nc2c(OCCn3cccc3)cccn2c1N(C)C(=O)c1cccs1,7,9,2.3
Cc1ccccc1-c1ccc(C2[C@@H]3CN(S(=O)(=O)c4cn(C)cn4)C[C@H]2N3)cc1 (stereo partly specified),1&4,18&-16,3.2&21
C[C@@H]1CCCCO[C@H](CN(C)S(=O)(=O)c2cccs2)[C@@H](C)CN([C@H](C)CO)C(=O)c2cc(NS(C)(=O)=O)ccc2O1,-1,8,2.7
CN(C)C(=O)c1ccc(NC(=O)c2cccc(-n3cnnn3)c2)cc1,4,7,-1.6
C=C1C(=O)[C@]23C[C@H]1CC[C@H]2[C@]1(C)[C@@H](OC(C)=O)CC[C@@](C)(C(=O)OC)[C@H]1C[C@@H]3OC(C)=O,-5,2,1.2
C[C@@H]1CN([C@@H](C)CO)S(=O)(=O)c2ccc(-c3ccc(F)cc3)cc2O[C@H]1CN(C)C(=O)C1CC1,-6,-18,-1.2
CC(C)c1cn(CC[C@H]2CC[C@H](NS(=O)(=O)c3ccc(F)cc3)[C@@H](CO)O2)nn1,-3,-4,-1.2
C[C@H]1CCCn2nncc2COCCNC1=O,3,11,-0.3
C[C@@H]1CCCCO[C@@H](CN(C)S(C)(=O)=O)[C@H](C)CN([C@@H](C)CO)C(=O)c2cc(NC(=O)CCC(F)(F)F)ccc2O1,-3,-1,-1.8
COCc1cccc(-c2csc(C(C)(O)c3ccccc3)n2)c1 (stereo unspecified),1,-12,-5.1
C[C@H]1CCCCO[C@@H](CN(C)Cc2ccccc2)[C@@H](C)CN([C@@H](C)CO)C(=O)c2cc(NC(=O)C3CCCCC3)ccc2O1,1,-11,0.8
C[C@H]1CN([C@@H](C)CO)C(=O)c2cccc(NC(=O)c3ccncc3)c2O[C@H]1CN(C)C(=O)Nc1ccc(F)cc1,3,1,1.0
COC(=O)C[C@H]1CC[C@H]2[C@@H](COC[C@H](O)CN2S(=O)(=O)c2ccc(F)cc2)O1,4,22,-3.0
O=C(c1cnccn1)N1CC[C@@H]2[C@H](CO)Nc3ccc(-c4ccccc4F)cc3[C@@H]21,-4,-10,3.1
Cc1noc(C)c1S(=O)(=O)Nc1ccc2c(c1)C(=O)N([C@@H](C)CO)C[C@H](C)[C@@H](CN(C)Cc1ccc(C(=O)O)cc1)OCCCC[C@H](C)O2,1,2,2.2
CCCCNC(=O)C1(C)CCN1C(=O)c1ccc2c(c1)CCO2 (stereo unspecified),5,10,-4.9
CN1c2ccc(-c3ccc(F)cc3)cc2[C@H]2[C@H](CCN2C(=O)c2ccncc2)[C@H]1CO,-9,-49,17
Cc1ccc(S(=O)(=O)Nc2ccc3c(c2)C(=O)N([C@H](C)CO)C[C@H](C)[C@@H](CN(C)Cc2ccncc2)O3)cc1,-1,4,-1.5
O=C(COc1ccc(F)cc1Br)Nc1ccccc1N1CCCC1,-13,-39,-0.7
CO[C@@H]1CN(C)C(=O)c2cc(NS(=O)(=O)c3cccc(F)c3)ccc2OC[C@H](C)N(C(=O)Cc2cccnc2)C[C@H]1C,0,-5,0.6
COc1ccc2c3c([nH]c2c1)[C@H](CO)N(Cc1ccccc1)CC31CCN(CC2CC2)CC1,2,1,0.9
CC(C)NC(=O)Nc1ccc2c(c1)C(=O)N([C@H](C)CO)C[C@H](C)[C@H](CN(C)S(=O)(=O)c1ccc(F)cc1)O2,0,-1,0.1
O=C(C[C@H]1C[C@H]2c3cc(NC(=O)NC4CCCCC4)ccc3O[C@H]2[C@@H](CO)O1)NCc1ccncc1,5,6,1.5
CC(C)(O)C#Cc1cccc(-c2nc(C(=O)O)cc3c2[C@@H](CCO)N(S(=O)C(C)(C)C)C3)c1 (stereo partly specified),5,17,6.5
COc1ccc2c3c([nH]c2c1)[C@@H](CO)N(Cc1cc(F)ccc1F)CC31CN(C(=O)C2CCC2)C1,-5,-10,3.9
C[C@@H]1CN([C@H](C)CO)C(=O)c2cc(NC(=O)NC3CCCCC3)ccc2O[C@@H](C)CCCCO[C@H]1CN(C)Cc1ccccc1,1,-4,1.1
C[C@H](CO)N1C[C@H](C)[C@H](CN(C)Cc2ccc(C(=O)O)cc2)Oc2ccc(NC(=O)CCC(F)(F)F)cc2CC1=O,-1,5,0.3
C[C@@H]1CN([C@@H](C)CO)C(=O)c2cc(NC(=O)Nc3ccc(C(F)(F)F)cc3)ccc2O[C@@H](C)CCCCO[C@@H]1CN(C)CC1CCCCC1,-5,6,-4.7
CC(C)NC(=O)Nc1ccc2c(c1)C(=O)N(C)C[C@@H](C)[C@@H](CN(C)S(C)(=O)=O)O2,2,5,0.3
CCCC#Cc1ccc([C@H]2[C@H]3CN(C(=O)NC4CCCC4)CCCCN3[C@H]2CO)cc1,-58,-70,-8.9
C[C@@H]1CN([C@@H](C)CO)C(=O)CCCn2cc(nn2)CO[C@H]1CN(C)C(=O)OCc1ccccc1,7&-1,7&2,-0.4&0.2
CO[C@@H]1CC[C@H]2CCOc3c(C#N)cccc3C(=O)N(C)C[C@@H](C)C(=O)N(C)C[C@@H]1O2,2,14,1.5
c1ccc(CN=C2CCCc3ccccc3N2)cc1,3,7,-2.2
Cc1ccc(S(=O)(=O)Nc2ccc3c(c2)C(=O)N([C@H](C)CO)C[C@H](C)[C@H](CN(C)C(=O)NC2CCCCC2)OCCCC[C@H](C)O3)cc1,1,-1,-1.0
Cc1cc(C(=O)Nc2cccc3c2O[C@@H](CN(C)S(=O)(=O)c2cccs2)[C@@H](C)CN([C@@H](C)CO)C3=O)n(C)n1,-2,5,-0.5
O=C1CN(Cc2ccc(F)cc2)C[C@@H]2[C@H](c3ccc(-c4ccccc4)cc3)[C@H](CO)N12,-9,-47,16
Cc1noc(C)c1NC(=O)N(C)C[C@H]1OCc2ccccc2-c2c(n(C)c3ccccc23)C(=O)N([C@@H](C)CO)C[C@@H]1C,0,1,0.4
COc1ccc2c3c(n(C)c2c1)[C@H](CO)N(C(=O)C1CCOCC1)CC31CCN(Cc2cccc(F)c2)CC1,-5,-2,0.8
C[C@H](CO)N1C[C@H](C)[C@H](CN(C)Cc2ccc(C(F)(F)F)cc2)Oc2c(NC(=O)c3cnccn3)cccc2C1=O,-10,-4,-0.6
CO[C@@H]1CN(C)C(=O)c2ccc(NC(=O)Nc3ccccc3)cc2OC[C@H](C)N(C(C)=O)C[C@H]1C,0,-1,-1.2

# Whole records as entered above:
# `Cc1ccc(S(=O)(=O)Nc2ccc3c(c2)C(=O)N([C@H](C)CO)C[C@H](C)[C@@H](CN(C)Cc2ccncc2)O3)cc1` is listed as rRNA inh HTS = -1; rRNA inh HTS OD600 = 4; rRNA inh HTS RFP = -1.5
# `Cc1noc(C)c1S(=O)(=O)Nc1ccc2c(c1)C(=O)N([C@@H](C)CO)C[C@H](C)[C@@H](CN(C)Cc1ccc(C(=O)O)cc1)OCCCC[C@H](C)O2` is listed as rRNA inh HTS = 1; rRNA inh HTS OD600 = 2; rRNA inh HTS RFP = 2.2
# `O=C1CN(Cc2ccc(F)cc2)C[C@@H]2[C@H](c3ccc(-c4ccccc4)cc3)[C@H](CO)N12` is listed as rRNA inh HTS = -9; rRNA inh HTS OD600 = -47; rRNA inh HTS RFP = 16

# (list continues)
SMILES,rRNA inh HTS,rRNA inh HTS OD600,rRNA inh HTS RFP
C[C@@H]1CCCCO[C@H](CN(C)C(=O)Nc2cccc3ccccc23)[C@@H](C)CN([C@@H](C)CO)C(=O)c2cc(NS(=O)(=O)c3ccccc3)ccc2O1,0,-8,1.3
CC(=O)N1CCC(C(=O)Nc2cc(S(=O)(=O)N3CCCCC3)ccc2C)CC1,7,9,0.8
C[C@@H]1CCCCO[C@@H](CN(C)C(=O)CCCN(C)C)[C@@H](C)CN([C@H](C)CO)C(=O)c2cc(NC(=O)CCC(F)(F)F)ccc2O1,5,8,-0.6
CO[C@@H]1CN(C)C(=O)c2ccc(NC(C)=O)cc2OC[C@H](C)N(C(=O)C2CCC2)C[C@@H]1C,1,2,-1.8
OC(CCl)CCl,1,-6,-2.6
CO[C@H]1CN(C)C(=O)c2ccc(NC(C)=O)cc2OC[C@H](C)N(Cc2cc(F)ccc2F)C[C@H]1C,-6,-11,0.6
CN(C)CCCNC(=O)C[C@@H]1CC[C@H]2[C@@H](COc3ccc(NS(C)(=O)=O)cc3C(=O)N2C)O1,1,0,-3.0
O=C(NCc1cccc(C(F)(F)F)c1)c1csc(COCCO)n1,-2,14,-1.3
CCc1c(-c2ccc(Cl)cc2)ncn1Cc1cccc(-c2ccccc2)c1,-6,-14,5.1
Cc1c(C(=O)NCc2cccc(C(F)(F)F)c2)sc(=O)n1Cc1ccc(C(=O)N(C)C)cc1,8,16,8.4
COc1ccc([C@@H]2C[C@H]3[C@@H](CN2S(=O)(=O)c2ccccc2)C(=O)C[C@@H](c2ccc(C)cc2)N3S(=O)(=O)c2ccc(C)cc2)cc1,20,14,4.2
COc1ccc(NC(=O)N2C[C@H](O)COC[C@H]3O[C@@H](CC(=O)NCc4ccccc4OC)CC[C@@H]32)cc1,-1,-3,-1.6
Cc1cccc2ccccc12,8,13,2.0
COc1ccc(CNC(=O)C[C@@H]2C[C@@H]3c4cc(NC(=O)CN(C)C)ccc4O[C@@H]3[C@H](CO)O2)cc1,3,0,0.6
CN1C(=O)c2cc(NC(=O)c3cc(F)cc(F)c3)ccc2OC[C@@H]2O[C@H](CC(=O)O)CC[C@@H]21,-1,-2,-2.0
COCC(=O)N1C[C@@H]2[C@H](c3ccccc31)[C@H](CO)N2C(=O)Nc1ccccc1F,2,12,-2.6
O=C(OCc1cn([C@H]2C[C@H](c3ccc(Cl)cc3)N(C(=O)C3CCCCC3)C[C@@H]2O)nn1)c1ccccc1,-3,-4,-1.0
COc1ccc(-c2cccc(-c3nc(C(=O)N(C)C)cc4c3[C@@H](CCO)N([S@](=O)C(C)(C)C)C4)c2)cc1,-4,-5,2.1
